Source: PubChem
VDR inh: Inhibitors of the vitamin D receptor (VDR): qHTS. hit rate 0.93% among 400,000. Vitamin D3 receptor (Homo sapiens), P11473. VDR-SRC2-3 peptide fluorescence polarization, 2 h. Potency, µM, for inactives: max response, negative = inhibition, actives largely listed as inhibitors; active = well fitted inhibition curve with a large enough effect; inconclusive = small, poorly fitted or top-dose-only effect, or another doubt; inactive = no such curve, though single readings can be large or run the other way; note: series mostly up to about 120 µM
Target sequence (P11473 whole entry, looked up): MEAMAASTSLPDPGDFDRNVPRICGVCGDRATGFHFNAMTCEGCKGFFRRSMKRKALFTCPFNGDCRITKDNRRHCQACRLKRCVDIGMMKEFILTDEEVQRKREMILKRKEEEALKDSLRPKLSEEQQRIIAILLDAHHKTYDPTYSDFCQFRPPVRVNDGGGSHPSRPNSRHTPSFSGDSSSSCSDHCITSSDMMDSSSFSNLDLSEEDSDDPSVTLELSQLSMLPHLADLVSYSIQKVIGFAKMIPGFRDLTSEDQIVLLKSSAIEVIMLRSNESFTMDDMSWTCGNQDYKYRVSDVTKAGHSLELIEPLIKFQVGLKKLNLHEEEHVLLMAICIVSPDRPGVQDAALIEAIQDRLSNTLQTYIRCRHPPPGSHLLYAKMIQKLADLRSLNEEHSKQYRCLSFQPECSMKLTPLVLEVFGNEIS
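FP read-out; VDR + SRC2-3 coactivator peptide; 23 nl compound by pintool; 2 h RT incubation; reagents held at 4 deg C, protected from light.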
Active calls of the source: *; ? = inconclusive; & = joins results of further samples. % is set by controls: 0 for no effect and ±100 for the full control effect; potency is the fitted concentration of half-maximal effect. These rows are one share of the data. The share of hits here may be higher or lower than overall.

structure | VDR inh
Cc1ncc([N+](=O)[O-])n1CC(=O)Nc1ccc(Cl)cc1 | -12%
CCC1COCCS(=O)(=O)N1Cc1ccccc1 (centres undefined) | -16%
CN(C)CCCN(C(=O)c1ccc2c(c1)CCCC2)c1nc2cc3c(cc2s1)OCO3 | -6%
Cc1ccc(NC(=Nc2ccc(Br)cc2)N2CCOCC2)cc1C | -13%
CCN(CC)CCCNC(=O)CCn1nc(-c2ccccc2)ccc1=O | -21%
CCc1ccccc1NC(=S)N1CCC(C(=O)c2ccc(F)cc2)CC1 | -10%
CC(NC(=O)c1cc(-c2ccccc2)on1)c1ccccc1 (centres undefined) | -2%
CCCCSc1nc(-c2cccc(OC)c2)nc2c1Cc1c(CO)cnc(C)c1O2 | 16%
COc1cccc(NC(=O)CN(C)C(=O)C2CC3C=CC2C3)c1 (centres undefined) | -1%
O=C(NC1CCN(C(=S)NCc2ccco2)CC1)NC12CC3CC(CC(C3)C1)C2 | 10%
O=C(NCc1ccccc1C(F)(F)F)C1CC(c2ccccc2C(F)(F)F)=NO1 (centres undefined) | -6%
COc1cccc(Nc2ncc3nc(CCc4ccccc4)c(=O)n(CCC#N)c3n2)c1 | 2%

Continued:
structure | VDR inh
NC(=O)c1c(NC(=O)c2ccccc2)sc2c1CCc1ccccc1-2 | 1%
Cc1ccc(C)c(NC(=S)N2CCN(S(=O)(=O)c3ccccc3)CC2)c1 | -8%
CC1CCN(c2nc(-c3ccc(F)cc3)cc(C(F)(F)F)n2)CC1 | -8%
COc1ccc(/C=C(\NC(=O)c2ccccc2)C(=O)N/N=C/c2cccnc2)cc1 | 3%
CCN(c1ccccc1)S(=O)(=O)c1ccc(N2CCN(c3ccc(O)cc3)CC2)nc1 | -2%
COc1cc(NC(=O)/C=C/c2ccccc2[N+](=O)[O-])cc(OC)c1 | -14%
CCOc1ccc(C(=O)Nc2sc3c(c2C(=O)OC)CC(C)(C)NC3(C)C)cc1 | 3%
CCN(CC)Cc1cc2[nH]c3c4ccc(Cl)cc4ncc3c2cc1OC | -7%&17%
COc1ccc(C(C)=O)cc1CSCC(=O)O | -14%
COc1ccc(C(=O)N/N=C(/C)c2cccc(NC(=O)C(F)(F)F)c2)cc1 | 2%
CCN1C(=O)c2cccc3c(NS(=O)(=O)c4ccc(NC(C)=O)cc4)ccc1c23 | 3%
CCOc1ccc2nc(SCc3ccccc3C#N)sc2c1 | -23%

Continued:
structure | VDR inh
CN(C)c1ccc(-c2nc(Nc3ccncc3)c3ccccc3n2)cc1 | -13%
COc1cc(/C=C/C(=O)Nc2ccc3nc4n(c(=O)c3c2)CCCC4)cc(OC)c1OC | 1%
CCN(CC)c1ccc(NC(=O)Cn2nc3c(cc2=O)CCCC3)c(C)c1 | 3%
CCCOC1CCCN(Cc2cn(C)nc2-c2ccccc2F)C1 (centres undefined) | 15%
CCOc1ccc(C(=O)NCC(=O)Nc2ccncc2)cc1OCC | 5%
COCCNc1nc(-c2cc(C)c(C)cc2C)cs1 | -14%
O=C(COC(=O)c1ccc(CN2CCCC2=O)cc1)Nc1ccc(F)cc1 | 12%
CCN(CC)C(=O)Cn1c(=O)c2ccccc2n2c(=S)sc(-c3cccc(C)c3)c12 | 6%
CCn1c(CN2CCC(C)CC2)nc2cc(NC(=O)c3ccc([N+](=O)[O-])cc3)ccc21 | 13%
Cc1nc(COC(=O)c2c(C)nn(-c3ccccc3)c2C)cs1 | 6%
CCCCOc1ccc(C(=O)NCC(=O)NC2CCN(Cc3ccccc3)CC2)cc1 | 13%
CC1(C)CC[C@]2(C(=O)O[C@@H]3OC(CO)[C@@H](O)[C@H](O)[C@H]3O)CC[C@]3(C)C(=CCC4[C@@]5(C)CC[C@H](O[C@@H]6OC(C(=O)O)[C@@H](O)[C@H](O)[C@H]6O)C(C)(C)C5CC[C@]43C)[C@@H]2C1 (some centres undefined) | ?

(next part)
structure | VDR inh
CC[C@]12c3[nH]c4ccc(Cl)cc4c3CCN1C(=O)[C@@H](CC(=O)NCCN1CCOCC1)C[C@@H]2C(=O)N1CCN(C(=O)C2CC2)CC1 | -5%
COc1cc(C2c3cc4c(cc3C(OC3OC5COC(C)O[C@@H]5C(O)C3O)C3COC(=O)C23)OCO4)cc(OC)c1O (some centres undefined) | 0%
CNC1C(O)C(O[C@H]2C(O)[C@@H](OC3OC(CN)=CCC3N)[C@H](N)C[C@@H]2N)OC[C@]1(C)O (some centres undefined) | 10%
COc1ccc(NC(=O)CSc2nc(C)cs2)c([N+](=O)[O-])c1 | ?
Cc1ccc2oc(=O)c3cc(C(=O)NCCN4CCN(C)CC4)sc3c2c1 | -17%
COc1ccc(C(=O)Nc2cc3c(cc2N2CCCCC2)n(C)c(=O)n3C)cc1OC | -7%
Cc1ccc(S(=O)(=O)N2CCOCC2)cc1NC(=O)CSc1nnc(NC2CC2)s1 | ?
CCSc1nnc(NC(=O)CN2C(=O)C3CC=CCC3C2=O)s1 (centres undefined) | 2%
COC(=O)Nc1ccc2c(c1)N(C(=O)CCCl)c1ccccc1S2 | 5%
S=c1[nH]nc(C2CC2)n1Cc1ccccc1 | 26%
Cc1cc(C(=O)N2CCCC(N3CCN(c4ccccc4C)CC3)C2)nc(C)n1 (centres undefined) | 13%
CCN1CCN(S(=O)(=O)c2ccc(S(=O)(=O)N(CC)Cc3ccccc3)cc2)CC1 | -13%

Continued:
structure | VDR inh
CC(C)NC(=O)c1ccc(COc2cc(Cl)ccc2Cl)o1 | -21%
CNC(=O)c1cc(C(=O)c2ccc(C(F)(F)F)cc2)c[nH]1 | -19%
Cc1ccc(-n2c(C)cc(/C=C3/SC(=O)N(CC(=O)N4CCOCC4)C3=O)c2C)nc1 | -10%
CC1(C)Cc2c(sc3nc(C4CC4)n(N)c(=O)c23)CO1 | 1%
CC(C)(C)OC(=O)N1CCC(c2nnc(SCc3cccc(Cl)c3)o2)CC1 | 21%
O=C(O)C1=NN(c2ccccc2)C(=O)C1 | -1%
CCn1ncc(Br)c1C(=O)Nc1ccc(Cl)cn1 | -2%
O=C(COC(=O)c1ccccc1SCC(=O)N1CCCC1)NC1CCS(=O)(=O)C1 (centres undefined) | -10%
NC(=O)N/N=C/c1ccc(Oc2ccc(F)cc2)cc1 | 3%
Cc1cc(C)cc(NC(=O)Cn2nnc3ccccc3c2=O)c1 | -10%
CCN(CC)S(=O)(=O)c1cc(C(=O)Nc2cccnc2Cl)ccc1Cl | 0%
CC(C)c1nnc(NC(=O)CCCC(=O)O)s1 | 12%

Cc1ccc(Cl)cc1N1CCN(C(=O)c2ccc3c(c2)CCN3S(=O)(=O)c2ccccc2)CC1
- VDR inh: -4%

COCc1c(C(=O)OC/C(O)=C(\C#N)c2nc3ccccc3[nH]2)oc2ccccc12
- VDR inh: -4%

O=c1c(-c2ccc(Cl)cc2)nc2cncnc2n1Cc1ccccc1
- VDR inh: -3%

CCN(CC)CCCN1C=C2C(=O)C(C)(OC(=O)CCc3ccccc3)C(=O)C=C2C=C1c1ccc(C#N)cc1 (centres undefined)
- VDR inh: -16%

CCCCSc1nc(C(=O)O)cc(=O)[nH]1
- VDR inh: 0%

CCOC(=O)N1CCN(CC(O)COc2cc(C)cc(C)c2)CC1 (centres undefined)
- VDR inh: 11%

O=c1[nH]c(C2CCN(S(=O)(=O)c3ccc4c(c3)OCCO4)CC2)nc2c1nnn2Cc1ccc(F)cc1
- VDR inh: -13%

COc1cc(Br)c(C2C(C#N)=C(N)Oc3n[nH]c(-c4cccnc4)c32)cc1OC (centres undefined)
- VDR inh: -5%

COCCn1c(SCC(=O)Nc2cc(Cl)ccc2OC)nc2c(c1=O)SC(C)C2 (centres undefined)
- VDR inh: -21%

CN(C)/C(CN1CCN(C=O)CC1)=C1\N=C(c2ccccc2)OC1=O
- VDR inh: 7%

COc1ccc(CCC(=O)Nc2c(C)n(C)n(-c3ccccc3)c2=O)cc1
- VDR inh: -21%

O=C1CNC(=S)N1CCCn1ccnc1
- VDR inh: -10%

N#CCC(=O)Nc1ccc(C(=O)OCC(=O)Nc2sc3c(c2C#N)CCCC3)cc1
- VDR inh: 11%

CCc1ccc(-c2nc(CS(=O)CC(=O)O)c(C)o2)cc1 (centres undefined)
- VDR inh: ?

CCCCN(CC)CCNC(=O)c1cn(C)c(=O)c2c1c1ccccc1n2C
- VDR inh: 12%&-18%

CC(C)NC(=S)NC(=O)/C=C/c1ccc(F)cc1
- VDR inh: 5%

COc1ccc(CNc2nc(-c3ccc(Cl)cc3)nn2C(=O)c2ccccc2)cc1
- VDR inh: 6%

CC12CN3CCN(CC(C3)C1(O)CN1CCOCC1)C2 (centres undefined)
- VDR inh: -5%

CCn1nc(C)c2c(-c3ccccc3)cc(=O)n(C(C)C(=O)NCCc3ccc(Cl)cc3)c21 (centres undefined)
- VDR inh: 15%

Cc1cccc(NC(=O)c2cc(NC(=O)c3ccco3)ccc2Cl)n1
- VDR inh: -1%

Ordered by the number under VDR inh (rising): 6 of the compounds above
structure,VDR inh
COc1ccc(CCC(=O)Nc2c(C)n(C)n(-c3ccccc3)c2=O)cc1,-21%
O=C1CNC(=S)N1CCCn1ccnc1,-10%
CC12CN3CCN(CC(C3)C1(O)CN1CCOCC1)C2 (centres undefined),-5%
CC(C)NC(=S)NC(=O)/C=C/c1ccc(F)cc1,5%
N#CCC(=O)Nc1ccc(C(=O)OCC(=O)Nc2sc3c(c2C#N)CCCC3)cc1,11%
CCn1nc(C)c2c(-c3ccccc3)cc(=O)n(C(C)C(=O)NCCc3ccc(Cl)cc3)c21 (centres undefined),15%

Quoted from the listing.
VDR inh, COc1ccc(CCC(=O)Nc2c(C)n(C)n(-c3ccccc3)c2=O)cc1 = -21%
VDR inh, O=C1CNC(=S)N1CCCn1ccnc1 = -10%

The listing picks up, starting 4 compounds before the break.
COc1ccc(CNc2nc(-c3ccc(Cl)cc3)nn2C(=O)c2ccccc2)cc1
- VDR inh: 6%

CC12CN3CCN(CC(C3)C1(O)CN1CCOCC1)C2 (centres undefined)
- VDR inh: -5%

CCn1nc(C)c2c(-c3ccccc3)cc(=O)n(C(C)C(=O)NCCc3ccc(Cl)cc3)c21 (centres undefined)
- VDR inh: 15%

Cc1cccc(NC(=O)c2cc(NC(=O)c3ccco3)ccc2Cl)n1
- VDR inh: -1%

Cc1ccc(S(=O)(=O)Nc2cccnc2Oc2ccc(Cl)cc2)cc1
- VDR inh: -10%

Cc1nnc(NC(=O)CSc2nnc(Cc3ccccc3)n2-c2ccccc2)s1
- VDR inh: 1%

Cc1cccc[n+]1CC(=O)/C=C1\N(C)c2ccccc2C1(C)C
- VDR inh: -6%

CCOC(=O)C1=C(C)Nc2ccccc2N=C1NC(=O)Cc1ccc(Br)cc1
- VDR inh: 3%

Clc1ccc(-n2cccc2)cn1
- VDR inh: -5%

COc1cc(NC(=O)c2ccc(Cl)cc2)c(OC)cc1Cl
- VDR inh: 12%

Cc1cccc(CNC(=O)CCCN2C(=O)c3cccnc3Oc3ccccc32)c1
- VDR inh: 11%

Cn1c(CN2CCN(C(=O)c3ccco3)CC2)nc2cc([N+](=O)[O-])ccc21
- VDR inh: 5%

CCCN(CC(=O)Nc1ccccc1C)C(=O)/C=C/c1cccs1
- VDR inh: -7%

CCCSc1nnc(NC(=O)CSc2sc3c(O)cc(=O)[nH]c3c2C#N)s1
- VDR inh: -1%

CC(C)c1cc(C(=O)Nc2sc3c(c2C#N)CCC3)no1
- VDR inh: 1%

Cc1cc(C(=O)N/N=C/c2c(CO)cnc(C)c2O)c2ccccc2n1
- VDR inh: 14%

Cc1cccc(NC(=O)c2sc(-n3nc(C)c(CCC(C)C)c3C)nc2C)c1
- VDR inh: -8%

CCCCCC(=O)NN1C(=S)N(c2ccc(OC)cc2)C(=O)C1CC(=O)Nc1ccccc1 (centres undefined)
- VDR inh: -3%

Cc1ccc(C(=O)c2sc3c(c2N)c(=O)[nH]c(=O)n3CCc2ccccc2)cc1
- VDR inh: 1%

CC1CC(C)CN(C(=O)COC(=O)c2cncc(Br)c2)C1 (centres undefined)
- VDR inh: -3%

Cc1cccc(CCN=c2c([N+](=O)[O-])nn(-c3ccccc3)n2O)c1
- VDR inh: -9%

CC1CCCC(NC(=O)CN(C)S(=O)(=O)c2cnc[nH]2)C1C (centres undefined)
- VDR inh: -2%

Cc1ccccc1NC(=O)Nc1nc2ccc(S(C)(=O)=O)cc2s1
- VDR inh: -13%

S=C(NCc1ccccc1)Nc1ccc(Oc2ccccc2)cc1
- VDR inh: -17%

COc1ccc(OC)c(NC(=O)C2C3C=CC(C3)C2C(=O)NCc2cccnc2)c1 (centres undefined)
- VDR inh: 1%

CC(C)COC(=S)Nc1ccccc1
- VDR inh: 0%

CC(C)c1ccccc1-n1c(SCC(=O)N2CCc3ccccc3C2)nc2ccccc2c1=O
- VDR inh: -14%

COC(=O)C(Cc1ccccc1)NC(=O)c1cc(S(=O)(=O)N(C)C)ccc1Cl (centres undefined)
- VDR inh: -7%

Cc1ccc(C(=O)COC(=O)CN2C(=O)C3C4C=CC(C4)C3C2=O)cc1C (centres undefined)
- VDR inh: 25%

CC(=O)Nc1cccc(-c2nnc3n2CC(C)S3)c1 (centres undefined)
- VDR inh: -6%

OC(c1cccc(OCc2ccccc2)c1)c1nnc(-c2ccccc2)o1 (centres undefined)
- VDR inh: 17%

CCCCCCCCS(=O)C1CS(=O)(=O)CC1O (centres undefined)
- VDR inh: -2%

CC1(C2CCCC2)NC(=O)NC1=O (centres undefined)
- VDR inh: 2%

COc1ccc(S(=O)(=O)Nc2c(O)ccc3ccccc23)cc1OC
- VDR inh: ?

COc1cc2c(=O)n(Cc3ccccc3)c(=O)n(CC(=O)NCc3ccco3)c2cc1OC
- VDR inh: -11%

COc1cccc(N(C(=O)Cn2nnc(-c3ccc(Cl)cc3)n2)C(C(=O)NCC2CCCO2)c2ccc(C)cc2)c1 (centres undefined)
- VDR inh: -7%

CCn1cc(C(=O)N2CCCC2)c(=O)c2cc(S(=O)(=O)N3CCOCC3)ccc21
- VDR inh: 5%
